Source: PubChem BioAssay
CDC25B-CDK2 inh: human CDC25B-CDK2/CyclinA binding inhibition; P30305+P24941; HTRF CDC25B-CDK2/CyclinA binding, anti-His/anti-Flag; hits give high values; z-score (concentration not given with the values); actives 0.72% (n = 94,000); AID 1259370;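 note: score is relative to mean and SD of negative controls; strong numbers were not always called active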
TAR Tat displ: HIV-1 TAR-Tat binding disruption | HIV-1 TAR RNA, Tat peptide displacement FRET; hits give high values | z-score (no concentration beside the values) | actives 0.6% (n = 100,000);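 note: score is relative to mean and SD of negative controls; some compounds called inactive have numbers as strong as hits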
* marks the source's active call; other numbers are inactive results; nt = no result given.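 Rule for the calls: active = z-score from 3 up in half or more of its runs; inactive = the rest.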 Random draw from the library (roughly 0.97% active in at least one column).

smiles | TAR Tat displ | CDC25B-CDK2 inh
COC(=O)c1ccccc1N1C(=O)C2C3c4ccccc4C(c4ccccc43)C2C1=O (stereo not drawn) | 1.3 | 0.32
CC(C)(C)N(Cc1ccccc1)C(=O)[C@H]1[C@@H]2C[C@@H]3[C@H]1C(=O)O[C@@H]3C2 | -0.41 | -1.3
O=C(CSc1ccc(-c2cccs2)nn1)NC1CCCC1 | 0.99 | nt
COc1ccc2c(c1)c(=O)oc1c(C)c(OC(C(=O)O)c3ccccc3)ccc12 (stereo not drawn) | 2.2 | -0.34
CC1=C(C(=O)OC2CCCC2)C(c2cccc(Br)c2)C2=C(CC(C)(C)CC2=O)N1 (stereo not drawn) | 1.5 | 0.28
Nc1c(C(=O)NCCN2CCOCC2)sc(=S)n1-c1ccccc1 | -1.9 | nt
CCn1nc(C)c([N+](=O)[O-])c1C(=O)Sc1cccc(Br)c1 | nt | -0.35
CCC(=O)Nc1ccc2nc(SCC(C)C(=O)Nc3c(C)cc(C)cc3C)sc2c1 (stereo not drawn) | nt | -1.5
CC(C)CN1CCn2c(nc3ccccc32)C1 | 7.8 | -2.1
Cc1nn2c(=O)cc(CSc3n[nH]c(-c4ccc(Cl)cc4)n3)nc2s1 | -0.62 | nt
Cc1nc(-c2csc(S(=O)(=O)N3CCN(c4ccccc4)CC3)c2)no1 | -0.65 | nt
Cc1ccc(-n2c(C)c(C)c3c2ncn2nc(-c4cccs4)nc32)cc1 | 0.89 | -1.2
O=C(CCC(=O)N1CCSc2ncccc21)N1CCN(c2ncccn2)CC1 | 0.45 | nt
CN1CCN(C(=O)c2nn(C)c3c2CSc2ccccc2-3)CC1 | -7.6 | -0.39
Cc1ccc(C)c(C(=O)CN2C3=NCCN3c3ccccc32)c1 | -0.28 | -0.15
CCSc1nnc(NC(=O)CSc2c(CC(C)C)cnc3c2c(=O)n(C)c(=O)n3C)s1 | 1.1 | nt
Cn1c(O)c(C2=Nc3ccccc3SC(c3ccc(Cl)cc3)C2)c(=O)n(C)c1=O (stereo not drawn) | 0.65 | 0.98
Cc1noc2ncnc(NCCCN3CCCC3=O)c12 | 2 | nt
Cn1c(=O)oc2cc(S(=O)(=O)NCCc3ccccc3)ccc21 | 0.08 | -0.66
O=c1cnnc2sc(SCc3ccccc3)nn12 | 2.1 | 0.15

The list goes on.
smiles | TAR Tat displ | CDC25B-CDK2 inh
COC(=O)c1ccc(Oc2nc3c(c(=O)n(C)c(=O)n3C)n2Cc2ccc(Br)cc2)cc1 | -0.93 | -2.5
COC(=O)c1ccc(CS(=O)(=O)c2ccc(OC)cc2)o1 | 1.7 | nt
COc1ccc(-c2n[nH]c(=S)n2-c2ccccc2C)cc1OC | nt | -2
O=C(COCc1cc(-c2ccc3c(c2)OCO3)on1)Nc1ccc2c(c1)OCCO2 | 0.45 | nt
O=C1CC(c2cccc(Cl)c2)c2scc(-c3ccccc3)c2N1 (stereo not drawn) | 2 | nt
CC(C)C(NS(=O)(=O)c1cccs1)C(=O)Nc1cccc(C(F)(F)F)c1 (stereo not drawn) | nt | 0.5
O=C(O)CN1C(=O)CSc2ncccc21 | nt | 0.64
CN1C(=O)C(C)(C)c2cc(S(=O)(=O)N3CCN(CCOc4ccc(Cl)cc4)CC3)ccc21 | 0.89 | nt
COc1ccc(-c2cc3cc(OC)c(OC)cc3c(C)n2)cc1 | nt | 0.85
O=C(O)CCN1C(=O)C(=O)/C(=C(/O)c2ccccc2)C1c1ccccc1 (stereo not drawn) | nt | -1.3
CCCn1c(NCc2c(O)ccc3ccccc23)nc2ccccc21 | nt | 0.38
CC(=O)N1CC(C)Sc2ccc(S(=O)(=O)NCC3CCCO3)cc21 (stereo not drawn) | 1 | nt
CN1C(C(=O)c2ccccc2)=C(NC(=O)COc2ccccc2)c2ccccc2S1(=O)=O | 1 | -2.4
COc1ncnc2c1[nH]c1ccccc12 | nt | -1.5
COc1ccccc1CNS(=O)(=O)c1ccc(-c2cnc(C3CC3)o2)cc1 | 0.91 | nt
O=C(O)c1ccccc1N1C(=O)C2CC=C(Cl)CC2C1=O (stereo not drawn) | 0.55 | -1.1
CCOC(=O)CSc1nnc(CSc2ncccn2)n1-c1ccc(OC)cc1 | 0.75 | 0.51
CCCn1cc(S(=O)(=O)c2ccc(OCC)cc2)c(=O)c2cc(OC)c(OC)cc21 | -1 | -0.89
CC1CCN(S(=O)(=O)c2cn(CC(=O)N3CCOCC3)cn2)CC1 | -1.4 | nt
CC(C)(C)c1ccc(NC(=O)c2ccco2)c(NC(=O)C(Cl)(Cl)Cl)c1 | nt | -1.6

More compounds
smiles | TAR Tat displ | CDC25B-CDK2 inh
O=C1c2cccnc2C(=O)N1Cc1ccc(S(=O)(=O)Nc2ccc(F)cc2F)cc1 | 0.35 | nt
CN(C)c1ccc(SC#N)cc1 | nt | -2.2
CC1CN(c2oc(/C=C/c3cccs3)nc2C#N)CC(C)O1 (stereo not drawn) | 1.8 | 0.77
O=C1Cc2cc(S(=O)(=O)N3CCN(c4ccccc4F)CC3)cc3c2N1CCC3 | 1.8 | nt
O=C(CN1C(=O)c2cccnc2Oc2ccc(Cl)cc21)N1CCCCC1 | 0.29 | nt
NC(=O)CSC1=Nc2ccccc2C2=NC(Cc3c[nH]c4ccccc34)C(=O)N12 (stereo not drawn) | nt | -2.1
COc1cc2c(c(OC)c1)C(c1cccc3ccccc13)CC(=O)N2 (stereo not drawn) | 1.7 | -1.2
CCCN1C(C)=NS(=O)(=O)c2cc(C(=O)N3CCCC3)ccc21 | 2.5 | nt
CN(C)CCN(Cc1cccs1)c1ccccn1 | 0.36 | -2.2
CCOc1ccccc1N1C(=O)c2c(C)nc3ccccc3c2C1=O | -0.67 | 3.4
CC1(C)CC(=O)C2=C(C1)Nc1cc3c(cc1C2c1ccc(Cl)cc1)OCCO3 (stereo not drawn) | nt | -1.3
Clc1ncnc2ncn(Cc3ccccc3)c12 | nt | -1.6
CCOC(=O)NN(C(=O)OCC)c1c(C)c(C)c(C)c(C)c1C | nt | -1
Cc1cc(C)n(CCc2nc3c4ccccc4nc(NC4CCN(Cc5ccccc5)CC4)n3n2)n1 | -0.55 | -1.4
Nc1ccc(S(=O)(=O)Nc2cnc3ccccc3n2)cc1 | 1.5 | nt
CCOC(=O)c1c(C)oc2c1c(C(c1ccncc1)N1CCN(C)CC1)c(O)c1ccccc12 (stereo not drawn) | nt | -2.2
O=C(CCCN1C(=O)c2cccnc2Sc2ccccc21)N1CCN(C(=O)c2ccco2)CC1 | -0.99 | nt
Cc1cc(=O)n(Cc2cn3ccccc3n2)c2c1c(C)nn2-c1ccccc1 | 1.3 | nt
CCOC(=O)C1CCN(c2nc3ccccc3n3c(C)nnc23)CC1 | 1.1 | 0.22
CCCc1c(C(=O)Nc2ccc3ccccc3n2)cnn1-c1ccccc1 | nt | -0.73

Record cards, as listed above. Screens in order: TAR Tat displ, CDC25B-CDK2 inh
Nc1ccc(S(=O)(=O)Nc2cnc3ccccc3n2)cc1 is listed as 1.5, nt
Cc1cc(C)n(CCc2nc3c4ccccc4nc(NC4CCN(Cc5ccccc5)CC4)n3n2)n1 is listed as -0.55, -1.4

Carrying on:
smiles | TAR Tat displ | CDC25B-CDK2 inh
CC1CN2C(=O)Cc3c(S(=O)(=O)N4CCCC4)ccc(c32)S1 (stereo not drawn) | 0.5 | nt
CCOC(=O)c1c(C)oc2ccc(OCc3ccc(Br)cc3)cc12 | 1.6 | -3.4
CC(C)OCCCNC(=O)c1cccn2c(=O)c3c4c(sc3nc12)CCCC4 | 0.15 | nt
CN1CCN(C(=O)C2CCN(c3nn4cc(-c5ccc(F)cc5)nc4s3)CC2)CC1 | 1.4 | nt
CCOc1cc(/C=C2\C(=O)N(c3ccc(Cl)c(C(=O)O)c3)N=C2C(F)(F)F)cc([N+](=O)[O-])c1O | nt | 0.3
Cc1nc(-c2cccc(F)c2)sc1CCNS(=O)(=O)c1cccs1 | 0.88 | nt
COc1ccc(Br)cc1CN1CCC(N2CCN(c3ccccc3OC)CC2)CC1 | -0.19 | 0.23
Cc1ccc(C2C=C(C(=O)O)Nc3ncnn32)cc1C (stereo not drawn) | 0.11 | -0.18
CCOc1ccc(-n2nnnc2CNS(=O)(=O)c2ccc(Cl)cc2)cc1 | 3.6 | nt
C=CCn1c(N)c(-c2nc3ccccc3n2C)sc1=S | -0.14 | 0.02
Cn1ncc2c(NC3CCCCC3)ncnc21 | 0.03 | nt
Cc1ccc(C)c(NC(=O)c2cc3c(=O)n4cccc(C)c4nc3n2C)c1 | 2.4 | nt
O=C1NC(c2ccc(Cl)cc2)Nc2sc3c(c21)CCCC3 (stereo not drawn) | 0.13 | -0.8
CCc1nnc(NC(=O)CSc2ccc(-c3sc(C)nc3C)nn2)s1 | 1.9 | nt
CCc1ccc(-n2c(=O)c(C#N)cc3c(=O)n4cccc(C)c4nc32)cc1 | -3 | 1.1
C=CCN1C(=O)C2(/C(=C(/O)c3ccccc3)C(=O)C(=O)N2CCN2CCOCC2)c2ccccc21 (stereo not drawn) | -0.87 | -1.4
COC(=O)c1c(NC(=O)CCCOc2ccc(Cl)cc2)sc2c1CCCC2 | 0.92 | -2.4
CCc1nc(SCc2cc(=O)n3nc(C)sc3n2)n[nH]1 | 0.19 | nt
c1ccc(C2(c3ccccc3)OCC(Cn3cncn3)O2)cc1 (stereo not drawn) | nt | -2.8
Cc1ccc(S(=O)(=O)N2CCC(n3c(C)nc4cccnc43)CC2)cc1 | 1.3 | nt

Of the compounds above, these have a cyano group:
smiles | TAR Tat displ | CDC25B-CDK2 inh
CN(C)c1ccc(SC#N)cc1 | nt | -2.2
CC1CN(c2oc(/C=C/c3cccs3)nc2C#N)CC(C)O1 (stereo not drawn) | 1.8 | 0.77
CCc1ccc(-n2c(=O)c(C#N)cc3c(=O)n4cccc(C)c4nc32)cc1 | -3 | 1.1

Additional entries follow.
smiles | TAR Tat displ | CDC25B-CDK2 inh
COc1ccc(CN2CSC3=C(C#N)C(c4ccc(Cl)cc4)CC(=O)N3C2)cc1 (stereo not drawn) | -0.55 | 3.8*
CCC(=O)OC1=CN(C(C)C)S(=O)(=O)c2ccccc21 | -1.2 | -1
Cc1ccc(CN2CCCn3c2nc2c3c(=O)[nH]c(=O)n2C)cc1 | nt | 0.01
COc1ccc2nc3c(cc2c1)c(N)nn3C(=O)c1cc(Br)ccc1Cl | 1.7 | -1.1
CC(C)c1ccc(OCc2cc(=O)n3c4c(sc3n2)CCCC4)cc1 | 1.2 | -1
COc1ccc(N=C(N)N=C(N)N)cc1 | nt | 0.31
CCc1ccc(S(=O)(=O)Nc2ccc3oc(=O)sc3c2)cc1 | 2.2 | -2.1
COc1ccc(CNCCC(c2ccco2)c2ccccc2OC)cc1OC (stereo not drawn) | -11 | 0.35
O=S(=O)(NCCc1ccccc1)c1ccc(-c2cc(C(F)(F)F)on2)s1 | 0.21 | nt
FC(F)(F)c1ccncc1-c1noc(-c2ccccc2)n1 | nt | -2.5
CCOc1cc(C2C(C(=O)OC)=C(C)Nc3nc4ccccc4n32)ccc1O (stereo not drawn) | 1 | 1.1
Cc1ccc(S(=O)(=O)N(C)c2cccc3cccnc23)cc1 | 0.38 | -2.3
Cc1cc2c(cc1S(=O)(=O)N(C)CC(=O)N1CCCC1)OCC(=O)N2 | 1.9 | nt
CC1CN(C(=O)N2CCC(C(=O)NCC3CCCO3)CC2)c2cc(Cl)ccc2O1 (stereo not drawn) | -0.28 | nt
CC(C)c1ccc(C2CC(=O)c3cnc(NCc4ccco4)nc3C2)cc1 (stereo not drawn) | 0.89 | -2
COc1cc(OC)c(Nc2ncnc3sc(C)c(S(=O)(=O)N4CCC(C)CC4)c23)cc1Cl | 0.45 | 0.02
CC(=O)N1N=C(c2ccccc2Oc2ccccc2)OC1c1nc2nc(C)cc(C)n2n1 (stereo not drawn) | -0.48 | nt
CCc1cccc(CC)c1NC(=O)NC(=O)c1c(OC)cccc1OC | nt | -0.98
CCC(CC)C(=O)Nc1nnc2n1CCS2 | 1.6 | nt
CCn1nc(C)c(CCNS(=O)(=O)c2ccc3c(c2)C(C)(C)C(=O)N3C)c1C | 0.08 | nt

Next part:
smiles | TAR Tat displ | CDC25B-CDK2 inh
CCN1C(=O)C2(c3ccccc31)c1c(oc3ccccc3c1=O)C(=O)N2CCCO (stereo not drawn) | 2.5 | 1.4
COc1ccc(Nc2cnnc3c(Cl)cccc23)c(OC)c1 | 0.21 | nt
Cc1ccc(NC(=O)c2ccc(CSc3ccccn3)cc2)c(O)c1 | nt | -1.3
CC(C)OC(=O)COc1ccc2c3c(c(=O)oc2c1)CCC3 | nt | -1.1
CCOc1ccc2nc(NC(=O)c3nc4ccccc4nc3Cl)sc2c1 | 1.7 | -1.6
O=c1n(Cc2cccc(F)c2)c2ccccc2c2nc(-c3ccccc3)nn12 | 0.56 | -0.05
Cc1cc2ccccc2n1-c1ccc(C(=O)N2CCC(C(=O)N3CCN(C)CC3)CC2)s1 | -0.43 | nt
CCn1c2ccccc2n2c(SCc3nc4ccccc4[nH]3)nnc12 | nt | -0.65
COC(=O)c1sc2cccc(F)c2c1S(=O)(=O)Nc1ccc(F)c(F)c1 | 0.07 | nt
CSCC[C@H](NC(=O)OC(C)(C)C)C(=O)N[C@@H](CC(=O)O)C(=O)NCC(=O)N[C@@H](CS)C(=O)N[C@@H](CCC(=O)O)C(=O)N[C@@H](CC(C)C)C(=O)O | 1.6 | nt
Cc1ccc(CNC(=O)CN2C(=O)c3cccnc3Oc3ccc(Cl)cc32)o1 | 0.42 | nt
N#Cc1nc(/C=C/c2ccccc2)oc1N1CCN(C(=O)c2cccc(F)c2)CC1 | -0.23 | -1.6
CCC(C(=O)NCCCN1CCCC1=O)n1c2ccccc2c2nc(=O)cc(C)n21 (stereo not drawn) | -0.39 | -0.77
COc1ccccc1C1SCCN1S(=O)(=O)c1ccc(C)cc1C (stereo not drawn) | 1.3 | -0.53
CCn1nc(C)cc1C(=O)NNC(=S)NCCCOC | nt | -2.4

Quoted at random: 2 records from the list.
smiles | TAR Tat displ | CDC25B-CDK2 inh
Cc1cc2ccccc2n1-c1ccc(C(=O)N2CCC(C(=O)N3CCN(C)CC3)CC2)s1 | -0.43 | nt
CCN1C(=O)C2(c3ccccc31)c1c(oc3ccccc3c1=O)C(=O)N2CCCO (stereo not drawn) | 2.5 | 1.4
